Screening data (PubChem BioAssay)
GLA inh pH 4.5 = inhibitors of human alpha-galactosidase A at pH 4.5; P06280; purified enzyme, 4-MU-alpha-Gal fluorescence, pH 4.5; activity change, negative = inhibition, % at 105 µM; 230,000 tested, under 10 active; AID 1467; inconclusive = small, poorly fitted or top-dose-only inhibition, or a rising curve; inactive = flat fitted curve, though single readings scatter; no compound was filed as active;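 also: 0% = full activity with enzyme and -100% = basal without enzyme; dose as in the result columns while the protocol names 77 µM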
miR-21 FLuc = raises the signal of a miR-21 reporter. 340,000 tested, under 10 active. Potency, µM (doses to about 38.3 µM), for inactives: top-dose reporter change, positive = more light. HeLa miR-21 FLuc reporter, luciferase, 48 h; active = well fitted rising curve with a large enough effect; inconclusive = small, poorly fitted or top-dose-only effect; inactive = no such curve, though single readings can be large or run the other way;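 also: % of control where 0% means no effect; miR-21 action dims this reporter so a rising signal means less miR-21 action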
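Luminescence from a firefly luciferase reporter carrying a miR-21 binding site downstream, stably expressed under a CMV promoter in HeLa cells that make miR-21 endogenously, reports miRNA modulation after 48 h compound exposure up to approximately 40uM final.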
Rango complex inh = Rango-importin beta binding inhibition. Q14974. Rango CFP/YFP FRET sensor + importin beta, 45 min. Potency, µM (series often up to 92.2 µM), without a hit: at the highest dose inhibition of complex formation. 0.031% of 340,000 active. AID 540263; active = rising FRET ratio curve, often small or poorly fitted; inconclusive = mostly compound fluorescence or quenching in the first reads; inactive = flat curves in all reads;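 also: potency is read from the fitted curve at half-maximal effect; 0% = DMSO wells and 100% = buffer wells lacking importin beta; nearly all actives have a fitted effect of over 15% in size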
Target sequence (Q14974 whole entry, looked up): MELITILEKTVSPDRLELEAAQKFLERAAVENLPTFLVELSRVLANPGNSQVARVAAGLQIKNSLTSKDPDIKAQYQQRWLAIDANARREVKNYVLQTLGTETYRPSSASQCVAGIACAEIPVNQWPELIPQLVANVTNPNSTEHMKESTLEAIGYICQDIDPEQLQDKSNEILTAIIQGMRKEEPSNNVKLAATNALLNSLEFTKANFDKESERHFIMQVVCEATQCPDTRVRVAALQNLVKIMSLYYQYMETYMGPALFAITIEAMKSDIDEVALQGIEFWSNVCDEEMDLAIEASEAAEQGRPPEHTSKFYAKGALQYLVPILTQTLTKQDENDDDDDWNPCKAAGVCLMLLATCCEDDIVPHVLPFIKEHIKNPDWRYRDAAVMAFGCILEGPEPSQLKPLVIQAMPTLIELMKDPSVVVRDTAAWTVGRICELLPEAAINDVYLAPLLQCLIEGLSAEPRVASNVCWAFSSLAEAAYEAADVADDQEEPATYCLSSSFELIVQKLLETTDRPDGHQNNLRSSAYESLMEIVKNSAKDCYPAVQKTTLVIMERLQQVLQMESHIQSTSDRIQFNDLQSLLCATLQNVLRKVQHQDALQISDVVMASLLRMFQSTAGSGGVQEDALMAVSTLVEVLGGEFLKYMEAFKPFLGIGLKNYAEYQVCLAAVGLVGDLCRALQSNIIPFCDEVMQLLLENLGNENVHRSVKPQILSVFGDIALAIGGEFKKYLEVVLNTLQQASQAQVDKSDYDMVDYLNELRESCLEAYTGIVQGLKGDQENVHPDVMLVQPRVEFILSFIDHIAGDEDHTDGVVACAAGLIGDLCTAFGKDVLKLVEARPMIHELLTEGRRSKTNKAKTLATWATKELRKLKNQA
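Inhibition scored from the CFP 486 nm/YFP 530 nm FRET ratio 45 min after adding 0.125 microM importin beta to 50 nM Rango biosensor preincubated 5 min with compound (room temperature, PBS with DTT, Tween-20, BSA). No-importin wells as positive control.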
Rango release inh = prevents RanGTP from dissociating the Rango-importin beta complex. O95149+P62826. Biochemical FRET Rango-importin beta, RanGTP-induced dissociation. Potency, µM (titrated, usually from 46.1 µM), for inactives: at the highest dose activity change, negative = inhibition. 0.071% of 340,000 active. AID 540253; active means falling FRET ratio curve, often poorly fitted, with flat reads before Ran was added; inconclusive means other falling curves, or compound fluorescence or quenching; inactive means flat or rising ratio curve;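 also: potency is read from the fitted curve at half-maximal effect; % of control where 0% means no effect; nearly all actives have a fitted effect of over 45% in size; -100% = wells without RanGTP and RCC1; the record marks most hits as doubtful in a second field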
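Quantitative HTS using a FRET biosensor: 0.1 uM Rango, 0.25 uM importin beta, 0.6 uM Ran, 2 mM GTP, 0.2 uM RCC1 final, PBS with DTT, Tween-20 and BSA. Post-read taken 45 min after Ran addition.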
Active calls of the source: *; ? = inconclusive; · = not tested or not shown; & = joins results of further samples. Some of the compounds tested; the hit share may differ from the screen's.

molecule | GLA inh pH 4.5 | miR-21 FLuc | Rango complex inh | Rango release inh
Cc1cc(C)nc(/N=C2\NC(=O)CC(C(=O)O)N2c2ccc(Cl)cc2)n1 (configuration not stated) | -13 | -3% | ? | -5%
O=c1cc(O)nc(SCc2ccccc2)n1-c1ccc(Cl)cc1 | -4 | -3% | 4.8% | 1%
CC(C(=O)Nc1ccc(O)c(C(=O)O)c1)N1C(=O)/C(=C/c2cccs2)SC1=S (configuration not stated) | · | 5% | -1.0% | 1%
COc1cccc(NC(=O)c2cc3ccccc3o/c2=N\O)c1 | · | 12% | 1.0% | 38%
O=C(Nc1ccc(Cl)c(S(=O)(=O)N2CCOCC2)c1)c1cccs1 | · | · | 0.0% | 29%
N=C1c2ccccc2CN1NC(=O)COc1ccc(Cl)cc1 | -4 | 3% | 0.4% | 9%
CC(C)[C@H]1C(=O)Nc2ccccc2N1C(=O)N[C@@H](Cc1ccccc1)C(=O)N[C@@H](C(=O)O)c1ccccc1 | · | 1% | -2.8% | -7%
O=C(c1cccc(-n2cccc2)c1)N1CCN(S(=O)(=O)c2ccccc2)CC1 | · | · | ? | 3%
CC(C)N(C)CCOC(=O)C1COc2ccccc2O1 (configuration not stated) | -2 | -6% | 0.4% | 17%
CC(O)(CS(=O)(=O)Cc1ccccc1)c1ccccc1 (configuration not stated) | · | -1% | 2.5% | 10%
O=C(Cn1c(NCCO)nc2ccccc21)NCC(F)(F)F | -5 | 0% | 1.4% | 19%
CCCCNC(=O)C(c1ccc(OCC(=O)OC)c(C(=O)OC)c1)N(CCOC)C(=O)CCCCCN1C(=O)NC(c2ccc(-c3ccccc3)cc2)C(C(=O)OCc2ccccc2)=C1C (configuration not stated) | -9&-4 | 18% | · | ·
CC(NO)/C(=N\O)c1cccs1 (configuration not stated) | 2 | 1% | 0.0% | -3%
O=C(Cc1cnn(-c2ccccc2)c1)c1ccc(O)c(O)c1O | -2 | -38% | -0.5% | -4%
COC(=O)/C=c1/sc2n(c1=O)CCN=2 | 6 | -1% | -3.8% | 2%
O=C(O)c1cc(C(=O)O)cc(N2C(=O)CSC2=S)c1 | · | -4% | 1.2% | -10%
COc1ccc(C2Nc3ccccc3C(=O)N2c2ccc(C)cc2)cc1COc1ccccn1 (configuration not stated) | 9 | -57% | 0.9% | -16%
O=C(CN1C(=O)NC2(CCCC2)C1=O)OCCOc1cccc(Cl)c1 | · | · | -0.5% | 13%
CC1=C(C(=O)Nc2ccccc2C(=O)N2CCC(C)CC2)SCCO1 | · | 0% | -4.3% | 14%
CC(/C=N/n1c(-c2n[nH]c3c2CCC3)n[nH]c1=S)=C\c1ccco1 | -3 | 0% | 1.2% | 7%
O=C(CN1C(=O)c2cccc3cccc1c23)NC1CCCC1 | · | -12% | ? | ?
COc1ccccc1-n1cnnc1SC(C)C(=O)Nc1ccc(NC(C)=O)cc1 (configuration not stated) | 0 | 2% | 0.6% | 12%
O=C(COC(=O)C1CC2CCCC(C1)C2=O)NNC(=O)c1ccc([N+](=O)[O-])cc1 (configuration not stated) | · | · | 3.5% | 18%
COCC(=O)n1cc(C(=O)OC)c2ccccc21 | 5 | -4% | ? | 43%
N#CCCN1CCCc2cc(N=Nc3ccc(C(F)(F)F)cc3)ccc21 | -19 | -59% | -1.7% | 10%
O=S(=O)(c1ccc(NC(=S)NCc2ccncc2)cc1)N1CCCCC1 | 1 | 11% | 0.0% | -30%
O=C(Nc1cccc(S(=O)(=O)NC2=NCCCCC2)c1)c1cccnc1Cl | -2 | 1% | -3.4% | 0%
Cc1ccc(C)c(N2CCN(S(=O)(=O)c3c(C)noc3/C=C/N(C)C)CC2)c1 | 4 | -3% | ? | -23%
CN(C(=O)c1ccc(NC(=O)Cc2ccc(NC(=O)C3CCN(C(=O)C4CCC4)CC3)cc2)cc1)C1CCCC1 | · | · | -3.0% | 4%
COc1ccc(/C=C2\CCc3ccccc3C2=O)cc1Cn1nc(C)cc1C | 5 | 12% | -3.7% | 12%
Cc1ccc(CNC(=O)c2ccc(NC(=O)C3=CSCCO3)cc2)cc1 | · | -35% | 0.3% | -11%
COc1ccc(CCN(C)S(=O)(=O)c2ccc(Cl)nc2)cc1OC | 5 | -4% | 1.0% | -1%
CC[C@@]1(C(=O)OC)N[C@H](CN(C)S(=O)(=O)c2ccccc2)[C@@H]2C(=O)N(Cc3ccccc3)C(=O)[C@@H]21 | · | · | -4.0% | 1%
CCc1cc(=O)oc2cc(C)cc(OCC(=O)NC3CCN(Cc4ccccc4)CC3)c12 | · | -3% | 0.1% | -9%
COc1cc2[nH]c(=S)n(C3CCCC3)c(=O)c2cc1OC | -3 | -2% | -2.6% | -14%
CCCC(=O)NCn1nnc(-c2ccc(Cl)cc2)n1 | -1 | -16% | -1.4% | 13%
NC(=O)C1CCCN(C(=O)CCCNC(=O)c2ccc(Cl)cc2)C1 (configuration not stated) | · | 0% | -1.1% | 11%
Cc1ccc(SCC(=O)NN=C2CCN(C)CC2)cc1 | 6 | -4% | 2.6% | -12%
CCCn1c(SCC(=O)N2CCc3ccccc32)n[nH]c1=O | · | · | -0.2% | -8%
O=C(Nc1nccs1)c1ccc[nH]c1=O | · | -31% | -3.1% | -10%
Cc1ccccc1S(=O)(=O)N1[C@@H](c2ccc(F)cc2)C(C(=O)O)=CC[C@H]1c1ccc(Cl)cc1 | · | · | 0.2% | ?
C=CCN(C(=O)CCS(=O)(=O)c1cccc2nsnc12)c1ccccc1 | · | 0% | -6.6% | -6%
Clc1ccc(C2CC(c3cccs3)n3ncnc3N2)cc1Cl (configuration not stated) | -22 | 0% | -3.4% | -4%
CSc1cccc(NC(=O)C2CCCN(S(=O)(=O)c3cnc[nH]3)C2)c1 (configuration not stated) | 4 | -1% | ? | 0%
O=C1CCC[C@@H]2Cc3nc4ccc(O)cc4cc3[C@@H]3CCN1[C@H]23 | · | · | ? | -14%
COc1cccc(OC)c1C(=O)NC(=S)NNC(=O)[C@H]1C[C@@H]1c1ccccc1 | -20 | 9% | -1.6% | 22%
COc1cccc(NC(=O)CCN2C(=O)c3ccccc3S2(=O)=O)c1 | 1 | -26% | 1.3% | -7%
CC(C)(C)C1CCC(=O)N(CCC#N)CC1 (configuration not stated) | · | -1% | -3.1% | -12%
COc1ccc(N2CCN(C(=O)CCNC(=O)Cn3ccc4ccccc4c3=O)CC2)cc1 | 1 | -1% | -1.4% | 5%
CCC(C)NCCOCCSc1ccc(Cl)cc1 (configuration not stated) | -4 | -4% | -0.1% | 1%
Cn1nc(C(=O)Nc2cccc(S(N)(=O)=O)c2)c2ccccc2c1=O | 3 | 4% | -2.3% | -10%
Cn1nc(C(=O)OCc2ccccc2F)c2ccccc2c1=O | 9 | -4% | -1.9% | -13%
NNC(=O)CNC(c1ccccc1)c1cc(Br)ccc1NC(=O)c1ccc(Br)cc1 (configuration not stated) | 2 | -8% | 1.9% | 1%
Cc1nn(-c2ccc3nnc(Br)n3n2)c(C)c1Br | 2 | -3% | · | ·
CCOc1cc(C(=O)N2CCN(c3ccccn3)CC2)cc(OCC)c1OCC | · | -1% | 3.4% | 4%
O=C(Nc1cccc(C(F)(F)F)c1)c1cc2ncc(Br)cn2n1 | -2 | 1% | -1.8% | -13%
CC1=NNC(=O)C1CCC(=O)N/N=C/c1ccc(C)cc1 (configuration not stated) | 1 | 6% | -0.1% | 19%
O=C([C@H](Cc1ccccc1)N1C(=O)c2ccccc2C1=O)N1CCOCC1 | · | -1% | -4.4% | 14%
CCn1c(SC(C)C)nnc1C1CCN(S(=O)(=O)c2ccc(OC)cc2)CC1 | 4 | 4% | -1.2% | 0%
O=C1C2C3c4ccccc4C(c4ccccc43)[C@@H]2C(=O)N1c1nc(-c2ccccc2)cs1 (some centres not stated) | 10 | -3% | 0.0% | 12%

Record cards, from the list above. Order of values: GLA inh pH 4.5 | miR-21 FLuc | Rango complex inh | Rango release inh
CCOc1cc(C(=O)N2CCN(c3ccccn3)CC2)cc(OCC)c1OCC is listed as · | -1% | 3.4% | 4%
CCC(C)NCCOCCSc1ccc(Cl)cc1 (configuration not stated) is listed as -4 | -4% | -0.1% | 1%

Shown with the structure last: entries from further up
GLA inh pH 4.5 | miR-21 FLuc | Rango complex inh | Rango release inh | SMILES
· | -1% | -3.1% | -12% | CC(C)(C)C1CCC(=O)N(CCC#N)CC1 (configuration not stated)
1 | -1% | -1.4% | 5% | COc1ccc(N2CCN(C(=O)CCNC(=O)Cn3ccc4ccccc4c3=O)CC2)cc1
· | · | 0.2% | ? | Cc1ccccc1S(=O)(=O)N1[C@@H](c2ccc(F)cc2)C(C(=O)O)=CC[C@H]1c1ccc(Cl)cc1
9 | -4% | -1.9% | -13% | Cn1nc(C(=O)OCc2ccccc2F)c2ccccc2c1=O

Later entries.
molecule | GLA inh pH 4.5 | miR-21 FLuc | Rango complex inh | Rango release inh
COCc1c(C(=O)N2CCN(Cc3ccc4c(c3)OCO4)CC2)oc2ccccc12 | · | · | -1.4% | 26%
Cc1cc(NC(=O)Nc2ccccc2Cl)no1 | · | -31% | -1.3% | -3%
COc1ccc(NS(=O)(=O)c2csc(C(=O)N3CCCC3)c2)cc1 | · | 1% | 1.0% | 5%
CC(C)(C)c1ccc(OCCCN2CCCC2)cc1 | · | -1% | 1.3% | -7%
CCOC(=O)c1c(N)c(C#N)c2n1CCCC2 | -12 | -11% | 0.5% | -11%
COc1ccc(NC(=O)CN2CCC3(O)CCCCC3C2c2cc(OC)ccc2OC)cc1 (configuration not stated) | 7 | 0% | 0.2% | -9%
CCOc1ccccc1N1CCN(C(=O)c2cc3c(C)cc(C)cc3[nH]2)CC1 | · | 6% | -1.4% | -20%
O=C(NC1CCCCC1)NC1CC2CCC(C1)N2C(=S)NCc1ccco1 (configuration not stated) | -10 | -7% | 0.2% | -8%
O=C(CN(C(=O)c1csnn1)c1ccc(F)c(Cl)c1)NC1CCCC1 | · | -3% | ? | 8%
Cc1cccc(NC(=S)N2CCC(NC(=O)c3ccco3)CC2)c1 | · | -1% | -2.4% | 11%
Cn1c(COc2ccc([N+](=O)[O-])cc2)nnc1SCC(N)=O | -15 | 0% | -0.3% | 1%
CC(C)NC(=O)COC(=O)c1ccc(S(=O)(=O)N2CCCC2)cc1 | 8 | 1% | -2.0% | 13%
O=S(=O)(Nc1cccc(-n2cnnn2)c1)c1cc(Cl)ccc1Cl | · | 0% | 0.2% | 1%
COc1ccc(OC)c(NC(=O)COC(=O)/C=C/c2c(C)nn(C3CCS(=O)(=O)C3)c2Cl)c1 (configuration not stated) | 5 | -9% | 4.8% | -8%
Cc1ccccc1-n1c(=O)cc(NCc2ccc3c(c2)OCO3)[nH]c1=O | 3 | -5% | 0.3% | -14%
COc1ccc(/C=C/C(=O)c2cc3c(cc2N)OCO3)cc1 | -2 | -36% | -4.8% | -24%
CCN(C(=O)CSc1nc(-c2cccs2)nc2ccccc12)C1CCS(=O)(=O)C1 (configuration not stated) | · | · | ? | 0%
C[C@H]1[C@H](C)CC[C@]2(C)CC[C@]3(C)C(=CC(=O)C4[C@@]5(C)CC[C@H](O)C(C)(C)C5CC[C@]43C)[C@H]12 (some centres not stated) | · | · | -2.6% | 0%
CC(=O)c1c(C)nn(C(=O)N2CCOCC2)c1C | 7 | -4% | -1.7% | -8%
Cc1ccc(C)c(Cn2nnc3c(=O)[nH]c(C4CCCN(S(=O)(=O)Cc5ccccc5)C4)nc32)c1 (configuration not stated) | · | -6% | 6.6% | -9%
O=c1/c(=C/c2ccccn2)sc2n1CN(c1ccccc1)CN=2 | -4 | 6% | -1.0% | 1%
CN(CC(=O)NCC1COc2ccccc2O1)S(=O)(=O)c1ccc(Cl)cc1 (configuration not stated) | · | · | -2.0% | -9%
